Screening results as filed in PubChem BioAssay.
Rango release inh: qHTS Assay for Inhibitors of RanGTP induced Rango (Ran-regulated importin-beta cargo) - Importin beta complex dissociation | Snurportin-1 (Homo sapiens) + GTP-binding nuclear protein Ran (Homo sapiens) + Importin … | Biochemical FRET Rango-importin beta, RanGTP-induced dissociation | Potency, µM (series often up to 46.1 µM), for the others: at the highest dose activity change, negative = inhibition | 340,000 tested, 0.071% active | AID 540253, 2011; active means falling FRET ratio curve, often poorly fitted, with flat reads before Ran was added; inconclusive means other falling curves, or compound fluorescence or quenching; inactive means flat or rising ratio curve;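 further: potency means the concentration at half of the fitted maximal effect; % of control where 0% means no effect; nearly all actives have a fitted effect of over 45% in size; -100% = wells without RanGTP and RCC1; the record marks most hits as doubtful in a second field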
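Recombinant Rango FRET biosensor (EYFP–snurportin 1 IBB–cerulean CFP10) at 0.1 uM premixed with 0.25 uM importin beta in PBS, 1 mM DTT, 0.02% Tween-20, 0.1% BSA. Compound added 5 min; RanGTP-RCC1 (0.6 uM Ran, 2 mM GTP, 0.2 uM RCC1) then triggers release, read at 45 min.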
miR-21 reporter: qHTS Assay for Modulators of miRNAs and/orActivators of miR-21; HeLa miR-21 FLuc reporter, luciferase, 48 h; Potency, µM (doses to about 38.3 µM), inactives show top-dose reporter change, positive = more light; 340,000 tested, under 10 active; active = well fitted rising curve with a large enough effect; inconclusive = small, poorly fitted or top-dose-only effect; inactive = no such curve, though single readings can be large or run the other way;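 further: % of control where 0% means no effect; miR-21 action dims this reporter so a rising signal means less miR-21 action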
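HeLa cells endogenously expressing miR-21, stably carrying CMV-driven firefly luciferase with a downstream miR-21 binding site, 2000 cells/well. Titrations up to approximately 40 uM, 48 hours; luciferase luminescence read.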
Rango complex inh: qHTS Assay for Inhibitors of Rango (Ran-regulated importin-beta cargo) - Importin beta complex formation; Rango CFP/YFP FRET sensor + importin beta, 45 min; Potency, µM (highest dose often 92.2 µM), without a hit: at the highest dose inhibition of complex formation; 340,000 tested, 0.031% active; AID 540263, 2011; active = rising FRET ratio curve, often small or poorly fitted; inconclusive = mostly compound fluorescence or quenching in the first reads; inactive = flat curves in all reads;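 further: potency means the concentration at half of the fitted maximal effect; 0% = DMSO wells and 100% = buffer wells lacking importin beta; nearly all actives have a fitted effect of over 15% in size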
Target sequence (Q14974 whole entry, looked up): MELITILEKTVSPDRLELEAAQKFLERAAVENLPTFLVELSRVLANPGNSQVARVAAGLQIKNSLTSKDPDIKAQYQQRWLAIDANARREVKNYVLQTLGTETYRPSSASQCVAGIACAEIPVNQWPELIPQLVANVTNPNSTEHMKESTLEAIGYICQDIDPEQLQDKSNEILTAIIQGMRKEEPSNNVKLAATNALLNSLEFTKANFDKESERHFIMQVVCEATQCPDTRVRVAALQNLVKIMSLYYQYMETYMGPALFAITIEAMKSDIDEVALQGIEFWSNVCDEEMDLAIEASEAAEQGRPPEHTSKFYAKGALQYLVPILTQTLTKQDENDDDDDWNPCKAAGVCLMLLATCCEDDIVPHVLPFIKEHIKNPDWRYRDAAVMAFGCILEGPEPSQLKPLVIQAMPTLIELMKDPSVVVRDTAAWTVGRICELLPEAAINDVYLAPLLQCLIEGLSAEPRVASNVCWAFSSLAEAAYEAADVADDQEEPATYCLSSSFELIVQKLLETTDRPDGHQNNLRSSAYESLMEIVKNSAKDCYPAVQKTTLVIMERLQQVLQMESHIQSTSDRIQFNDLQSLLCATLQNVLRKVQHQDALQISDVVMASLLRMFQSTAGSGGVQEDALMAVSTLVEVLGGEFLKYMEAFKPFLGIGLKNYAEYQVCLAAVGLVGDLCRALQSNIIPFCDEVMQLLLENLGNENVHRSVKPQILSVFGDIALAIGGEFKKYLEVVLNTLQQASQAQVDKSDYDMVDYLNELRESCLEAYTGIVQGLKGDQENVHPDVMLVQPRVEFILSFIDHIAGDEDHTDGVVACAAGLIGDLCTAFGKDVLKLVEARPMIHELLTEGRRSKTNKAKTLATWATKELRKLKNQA
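FRET biosensor (snurportin 1 IBB flanked by EYFP and cerulean), 50 nM, with compound 5 min, then 0.125 microM importin beta in PBS, 1 mM DTT, 0.02% Tween-20, 0.1% BSA. CFP/YFP ratio read after 45 min at room temperature; pre-read flags interference.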
GLA inh pH 4.5: qHTS Assay for Inhibitors of Human alpha-Galactosidase at pH 4.5. Alpha-galactosidase A (Homo sapiens), P06280. purified enzyme, 4-MU-alpha-Gal fluorescence, pH 4.5. activity change, negative = inhibition, % at 105 µM. 230,000 tested, under 10 active. AID 1467, 2008; inconclusive = small, poorly fitted or top-dose-only inhibition, or a rising curve; inactive = flat fitted curve, though single readings scatter; no compound was filed as active;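 further: 0% = full activity with enzyme and -100% = basal without enzyme; dose as in the result columns while the protocol names 77 µM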
Starred values were filed as active, the others as inactive; ? = inconclusive; . = no result given; & = joins results of further samples. An excerpt. The share of hits here may be higher or lower than overall.

SMILES	GLA inh pH 4.5	Rango complex inh	Rango release inh	miR-21 reporter
NS(=O)(=O)c1cccc(C(=O)NC2CCSc3ccccc32)c1 (stereo not drawn)	.	0.0%	0%	-3%
CCN(CC)C(=O)[C@H]1C[C@H](CC(=O)NCC23CC4CC(CC(C4)C2)C3)C(=O)N2CCc3c([nH]c4cc(-c5ccco5)ccc34)[C@]12C	.	-0.3%	-7%	.
O=C(O)Cn1nnn(-c2ccccc2)c1=S	5	0.1%	1%	-2%
Cc1cc(N=Cc2cc(Br)ccc2O)no1	-14	?	?	0%
CC(C)C(NC(=O)C1CCCCC1)C(=O)NC1CCN(Cc2ccccc2)CC1 (stereo not drawn)	2	.	.	2%
CCN1C(=O)/C(=C\c2nc3ccccc3c(=O)n2-c2ccccc2)c2ccccc21	0	0.6%	11%	-5%
CCOC(=O)CNC(=O)N1CCCC(CNS(=O)(=O)c2cccs2)C1 (stereo not drawn)	-14	-2.3%	-2%	-1%
CC[C@]12c3[nH]c4cc(-c5ccco5)ccc4c3CCN1C(=O)[C@@H](CC(=O)NCc1ccco1)C[C@@H]2C(=O)N1CCN(C(=O)C2CC2)CC1	.	?	-14%	.
O=C(NCc1ccc2c(c1)OCO2)C1CCCN(C(=O)c2ccc(Cl)cc2)C1 (stereo not drawn)	-17	1.7%	18%	0%
O=C(NCCCN1CCCC1)c1ccc2c(c1)N(Cc1ccccc1)CCS2	9	-1.9%	-5%	2%

The list continues.
SMILES	GLA inh pH 4.5	Rango complex inh	Rango release inh	miR-21 reporter
Cc1ccc(S(=O)(=O)N2CCC(N3CCC(C)CC3)CC2)cc1	.	1.1%	5%	-2%
CCC(CC)NC(=O)CSc1ccc(S(=O)(=O)N2CCOCC2)cn1	.	11%	-13%	.
COc1ccccc1CNC(=O)CCNS(=O)(=O)c1cccc2nsnc12	6	0.8%	-9%	0%&-6%
COC(=O)c1ccc(S(=O)(=O)N2CCC(O)CC2)n1C	-3	0.6%	3%	-2%
COc1ccc(NC(=O)c2cc(-c3ccccc3Cl)on2)cc1	.	-1.4%	1%	-32%
Cc1ccccc1NC(=O)Cn1nnc(-c2ccc(N3CCOCC3)cc2)n1	4	-1.9%	-4%	-15%
CCC(=O)Nc1ccc(NC(=S)NC(=O)c2cc3ccccc3o2)cc1	-2	-4.1%	19%	-14%
Cc1cc(C)c(C(=O)CSC2=NC(N)=C(C#N)C3(CCCCC3)C2C(N)=O)cc1C (stereo not drawn)	-7	-0.4%	10%	20%
CC(C)c1ccc(CCNC(=O)CCNC(=O)c2ccc(Br)cc2)cc1	.	3.0%	4%	1%
CSc1nnc([C@H](C)NC(=O)OC(C)(C)C)o1	3	-2.5%	11%	-3%

Remaining list, next part.
SMILES	GLA inh pH 4.5	Rango complex inh	Rango release inh	miR-21 reporter
COc1cc(-c2nnc(NC(=O)C3=COCCO3)o2)cc(OC)c1OC	.	1.2%	-13%	.
COc1ccc(Cc2nc3c4c(ncn3n2)Oc2ccc3ccccc3c2C4c2ccc(OC)c(OC)c2)cc1 (stereo not drawn)	-1	-5.7%	4%	-2%
COc1ccc(-n2c(SCC(=O)N3CCCCC3)nc(O)cc2=O)cc1	0	-7.2%	-1%	-11%
Cc1c(NC(=O)CN2CCCc3ccccc32)c(=O)n(-c2ccccc2)n1C	3	-5.8%	10%	3%
CCN(CC)CCCN(C(=O)Cn1nnc(-c2ccc(OC)c(OC)c2)n1)C(C(=O)NC(C)(C)C)c1ccc(F)cc1 (stereo not drawn)	-13	1.1%	-17%	-2%
Cc1ccccc1C(=O)Nc1nc2n(n1)C(c1ccccc1)CC(=O)N2 (stereo not drawn)	3	?	1%	10%
O=S(=O)(NCCSc1ccccc1)c1cccs1	-2	8.0%	-3%	-11%
[N-]=[N+]=N[C@@H](CCN1CC[C@H](NC(=O)OCc2ccccc2)CCC1=O)c1ccccc1	.	-0.3%	0%	4%
Cc1c(CCC(=O)NC2CC2)c(=O)oc2c(C)c(O)ccc12	.	?	?	-21%
O=C(CSc1nc2ccccc2o1)Nc1nncs1	-4	-2.1%	?	-8%

Going on with the list:
SMILES	GLA inh pH 4.5	Rango complex inh	Rango release inh	miR-21 reporter
CCCNC(=O)C(Cc1ccccc1)NC(=O)c1ccc(-c2ccccc2)cc1 (stereo not drawn)	.	-0.4%	0%	.
CCCCn1c(SCC(=O)OCC)nc2c1c(=O)[nH]c(=O)n2C	-2	3.6%	5%	-8%
CC1=NN(c2ccc([N+](=O)[O-])cc2)C(=O)/C1=C\N(C)C	-10	1.5%	2%	-22%
COc1ccc(CN2CCCC(C(=O)N3CCc4ccccc4C3)C2)cc1OC (stereo not drawn)	.	7.0%	1%	2%
CCOC(=O)c1sc2nc(C)nc(NCc3cccnc3)c2c1C	4	-5.1%	3%	-9%
O=C(CSc1nnc2c(Cl)cc(C(F)(F)F)cn12)Nc1ccc2c(c1)OCO2	-10	3.4%	1%	-3%
CCc1nnc(NS(=O)(=O)c2ccc(NC(=S)NC(=O)/C=C/c3ccc(C(C)C)cc3)cc2)s1	1	0.3%	-4%	-7%
CCC(NC(=S)Nc1ccccc1)C(=O)O (stereo not drawn)	2	2.0%	1%	-4%
COCCCNC(=S)N(CCN(C)C)Cc1cc2cc3c(cc2[nH]c1=O)OCCO3	.	-4.8%	-8%	-5%
CCC(=O)N/C(=N/c1nc(C)cc(C)n1)Nc1ccc(OC)cc1	3	0.8%	2%	-3%

Continuation:
SMILES	GLA inh pH 4.5	Rango complex inh	Rango release inh	miR-21 reporter
CC1(C)CC(=O)C2=C(C1)OC(N)=C(C#N)C21C(=O)N(Cc2ccccc2Cl)c2ccccc21 (stereo not drawn)	-15	2.4%	6%	0%
Nc1nc2c(F)cccc2s1	-3	-4.1%	-9%	-13%
Cc1cc(C)nc(-n2nc(C)cc2NC(=O)c2cc3ccccc3oc2=O)n1	.	-0.7%	1%	.
CCOC(=O)C1=CN(C(C)C)CCC1=O	.	2.1%	5%	.
COc1cccc(C(=O)NC2(C(F)(F)F)N=C3SCCN3C2=O)c1 (stereo not drawn)	-4	-7.3%	5%	-5%
Cc1cc(=O)oc(C)c1C(=O)NCCc1ccc(F)cc1	9	-1.4%	21%	-4%
Cc1ccc2nc3c(cc(C(=O)NC4CCCCC4)c(=N)n3C3CCCCC3)c(=O)n2c1	.	?	?	-5%
CCc1ccc(OCC(O)CN2CCN(c3ccc(OC)cc3)CC2)cc1 (stereo not drawn)	.	-1.0%	22%	0%
CCCCC(=O)OCc1c(-c2ccccc2)ncc2ccccc12	.	-4.7%	22%	.
Cc1ccc([N+](=O)[O-])cc1NC(=O)Nc1ccc(S(N)(=O)=O)cc1	-7	-0.4%	6%	-6%

Later entries.
SMILES	GLA inh pH 4.5	Rango complex inh	Rango release inh	miR-21 reporter
O=C(Nc1ccccc1C(=O)N1CCCCCC1)c1ccc(Cl)cc1	1	-3.1%	1%	0%
O=C(NCC(=O)N1CCN(S(=O)(=O)/C=C/c2ccccc2)CC1)c1ccc(Cl)cc1	-5	3.0%	-1%	8%
COc1ccccc1-n1c2nc3ccccc3nc2c2c(=O)n(-c3cc(C)cc(C)c3)cnc21	3	3.5%	5%	-9%
Oc1cccc(Nc2ncnc3ccccc23)c1	-12	1.2%	0%	-34%
O=C(COC(=O)C1CCN(S(=O)(=O)c2c(Cl)cccc2Cl)CC1)NCc1ccco1	.	-2.5%	12%	.
Cc1ccc(S(=O)(=O)CC(CN2CCOCC2)N2CCOCC2)cc1 (stereo not drawn)	5	3.0%	-8%	0%
COc1ccc(C(=O)Nc2ncccc2C)cc1S(=O)(=O)N1CCCc2ccccc21	.	0.4%	2%	.
Cc1nc2c(C)cccn2c(=O)c1NC(=O)c1cccc2ccccc12	.	2.0%	16%	.
Cc1cccc(NC2=C/C(=N/S(=O)(=O)c3cccs3)c3ccccc3C2=O)c1	3	-0.7%	-4%	?
CC(C)OC(=O)c1cccnc1N1CCN(c2cccc(Cl)c2)CC1	-5	-0.5%	2%	-3%

Following part:
SMILES	GLA inh pH 4.5	Rango complex inh	Rango release inh	miR-21 reporter
Cc1ccccc1Oc1ccc2c(c1)[C@@H]1C[C@H](N(C)C(=O)NC3CCCCC3)[C@H]([C@H](C)O)C(=O)N1CC2	.	-1.0%	-2%	.
O=C(Cn1ccc2ccccc2c1=O)NCCC(=O)N1CCN(c2cccc(C(F)(F)F)c2)CC1	2	1.2%	12%	9%
O=S(=O)(Cc1ccc(Cl)cc1)N1CCN(Cc2ccc3c(c2)OCO3)CC1	-12	4.0%	19%	2%
COc1ccc(C(=O)c2ccc(OC)c(OC)c2OC)cc1	.	-2.9%	0%	.
Cn1nnnc1Sc1ncnc2scc(-c3ccccc3)c12	-2	-2.3%	14%	27%
COc1ccccc1CCc1nnc(N)s1	.	0.4%	8%	-8%
Cc1ccc(NC(=O)c2cc([N+](=O)[O-])ccc2NCc2cccnc2)cc1Cl	9	-7.5%	11%	4%
COc1ccccc1NC(=O)CSc1nnc(Cn2c(=O)sc3ccccc32)n1C	1	0.6%	-8%	-1%
C#CCOCCOCCOCCNc1nc(N2CCN(C(=O)[C@H]([C@@H](C)CC)n3cc(CCCN=C(N)N)nn3)CC2)nc(N2CCN(C(=O)[C@H]([C@@H](C)CC)n3cc(CCCN=C(N)N)nn3)CC2)n1	2	.	.	-1%
C[C@@H]1CN([C@@H](C)CO)C(=O)c2cc(NC(=O)Nc3ccc4c(c3)OCO4)ccc2O[C@H]1CN(C)S(=O)(=O)c1cn(C)cn1	.	8.3%	19%	.

Record cards, from the list above. Values in the order: GLA inh pH 4.5 | Rango complex inh | Rango release inh | miR-21 reporter
COc1ccccc1-n1c2nc3ccccc3nc2c2c(=O)n(-c3cc(C)cc(C)c3)cnc21 in the list: 3 | 3.5% | 5% | -9%
CCC(CC)NC(=O)CSc1ccc(S(=O)(=O)N2CCOCC2)cn1 in the list: . | 11% | -13% | .

(list continues)
SMILES	GLA inh pH 4.5	Rango complex inh	Rango release inh	miR-21 reporter
NS(=O)(=O)c1ccc(CCNC(=O)CN2CCN(c3ccccc3O)CC2)cc1	3	0.6%	-10%	-5%
O=C(NC1CCCCC1)C(c1ccccc1)N(C(=O)Cc1ccsc1)c1ccccc1 (stereo not drawn)	5	1.1%	-5%	-1%
COc1ccc(NC(=O)NCc2cccnc2)cc1OC	-6	0.1%	16%	-7%
Cc1csc(=O)n1CC(=O)OCC(=O)Nc1ccc(Cl)cc1F	.	5.8%	18%	.
CCN(CC)S(=O)(=O)c1ccc2[nH]cc(C(=O)NCCCN3CCCCC3C)c(=O)c2c1 (stereo not drawn)	0	2.1%	6%	-3%
C=C1C2(C(=O)NCc3ccco3)CCC(C2)C1(C)C (stereo not drawn)	-5	2.9%	-5%	-1%
CC(NC(=O)OCc1ccccc1)C(=O)Oc1cc2oc(=O)cc(-c3ccccc3)c2cc1Cl (stereo not drawn)	-7	?	?	13%
CCc1ccc(CNC(=O)C2CCN(S(=O)(=O)N3CCCC3)CC2)cc1	.	2.1%	-10%	1%
CCNc1nc(NC(C)C)nc(OCCNS(=O)(=O)c2cc(C)ccc2C)n1	2	-0.7%	20%	-8%
O=C1C=CN(C(=O)Oc2ccccc2)CC1	-1	-0.4%	1%	-5%
CCCn1c(NC(=O)C2CCN(S(=O)(=O)c3cccs3)CC2)nc2ccccc21	4	-2.7%	-5%	?
Cc1nc(NC(=O)c2ccc([N+](=O)[O-])cc2Cl)sc1C(=O)N(C)C	4	-4.9%	19%	-12%
